Assay outcomes deposited in PubChem by several laboratories.
E coli growth – inhibitors of Escherichia coli growth; AID 1053175; OD600 absorbance (no concentration beside the values); OD600, 23 h; stronger effect = lower value; 0.21% of 330,000 active;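 active = OD600 absorbance below the run mean of sample wells minus 3.6 SD, in any replicate, cut at about 0.56 in these data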;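 note: stock transfer was 300 nL into about 60 µL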
UCH37 DUB inh – human UCH37 deubiquitinating enzyme inhibition; inhibition, % (concentration not given with the values); AID 588478; 0.33% of 330,000 active; purified proteasome/UCH37, Ub-AMC cleavage fluorescence; Q9Y5K5;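 active = mean of two replicates above 20%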;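 note: 0% = compound-free wells with enzyme and 100% = wells lacking proteasome; stock transfer was 100 nL into about 20 µL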
Target sequence (Q9Y5K5 whole entry, looked up): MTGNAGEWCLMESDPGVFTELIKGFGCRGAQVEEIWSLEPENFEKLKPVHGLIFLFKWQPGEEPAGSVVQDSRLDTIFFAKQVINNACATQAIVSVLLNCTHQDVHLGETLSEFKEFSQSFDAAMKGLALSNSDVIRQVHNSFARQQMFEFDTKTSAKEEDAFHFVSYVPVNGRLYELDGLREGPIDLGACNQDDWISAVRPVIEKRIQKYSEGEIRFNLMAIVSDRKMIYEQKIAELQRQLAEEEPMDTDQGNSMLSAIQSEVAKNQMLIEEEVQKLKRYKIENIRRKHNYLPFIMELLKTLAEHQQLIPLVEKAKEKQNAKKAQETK
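Schedule: 30 min plus 25 min, room temperature / Material: human UCH37 within purified proteasomes / Technique: AMC fluorescence intensity at 355/460 nm / Buffer or medium: pH 7.4 Tris-HCl (50 mM) with ovalbumin, ATP-MgCl2, DTT / Controls: wells without proteasome as full block, compound-free enzyme plus substrate as uninhibited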
B2AR ag – human beta-2 adrenergic receptor agonism by FAP | Am2.2-beta2AR cells, FAP receptor internalization, flow cytometry; reference of the scale not given here | response, % (no concentration beside the values) | P07550 | 0.43% of 340,000 active;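 active = response above a set limit, near 3 SD of response in nonfluorescent compounds, cut at about 42% in these data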;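 note: stock transfer was 100 nL into about 11 µL; a reference agonist was the positive control; negative values mostly stem from fluorescent compounds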
HNF4A DNA FP – change in binding of human HNF4 alpha to DNA. P41235. HNF4a-FITC DNA binding, fluorescence polarization, 1 h. activity change, % at 10 µM. 0.3% of 360,000 active. AID 1224865; in the data active = activity change above about 30%, passing the limit was not always enough;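 note: controls were the assay level and a saturating level of protein; the project sought stronger binding though the title names inhibitors; some compounds called inactive have numbers as strong as hits; positive values seem to mean higher polarization but the record does not say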
Target sequence (P41235 whole entry, looked up): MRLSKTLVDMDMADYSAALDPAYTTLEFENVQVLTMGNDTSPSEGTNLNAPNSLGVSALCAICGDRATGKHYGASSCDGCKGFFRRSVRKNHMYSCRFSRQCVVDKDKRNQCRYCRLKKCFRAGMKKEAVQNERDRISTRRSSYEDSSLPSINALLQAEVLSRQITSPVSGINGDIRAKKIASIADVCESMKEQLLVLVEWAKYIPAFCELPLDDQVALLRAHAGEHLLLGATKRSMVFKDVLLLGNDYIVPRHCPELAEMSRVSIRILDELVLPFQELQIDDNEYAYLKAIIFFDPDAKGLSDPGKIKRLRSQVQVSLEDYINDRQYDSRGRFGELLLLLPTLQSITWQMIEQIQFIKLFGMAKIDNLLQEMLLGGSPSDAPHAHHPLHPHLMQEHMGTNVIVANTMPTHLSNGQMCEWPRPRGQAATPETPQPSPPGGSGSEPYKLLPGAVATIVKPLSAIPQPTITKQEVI
Bfl-1 A1 inh – inhibitors of the anti-apoptotic protein A1, read as caspase activation | MEF A1-2A-BIM cells, Caspase-Glo 3/7 luminescence, 3 h; percent of clofoctol response, vehicle zero | AID 2462 | caspase activation, % (test concentration not listed) | 0.066% of 330,000 active;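 active = over half of replicate activation scores above 10%, or exactly half above 10 with the replicate mean above 10; inconclusive = replicate mean below 10 yet half the replicates above 10; inactive = over half of replicates below 10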;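 note: wells of about 30 µL received 50 nL stock; many hits fall short of the cut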
Vif TR-FRET – HIV-1 Vif–A3G interaction blockers – biochemical, TR-FRET, GST-Vif 1-94, biotin-A3G peptide, dose response retest, primary screen (AID 1117319); TR-FRET GST-Vif / biotin-A3G peptide binding; higher % means a stronger effect; test concentration not given here; strong numbers were not always called active; one-dose inhibition, %; IC50 in µM for titrated hits; 0.57% of 260,000 active;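 active = above the screen mean plus three standard deviations and confirmed in dose response; inconclusive = results disagree or hit not tested in dose response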;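 note: Vif residues 1-94 fused to GST binding biotinylated APOBEC3G peptide 110-148; 0% = full assay without inhibitor and 100% = GST in place of GST-Vif; retest series ran down from 100 µM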
LANA-H2A inh – blocks KSHV LANA binding to histone H2A/H2B; cell-free LANA-H2A/H2B peptide, fluorescence polarization; inhibition, % (test concentration not listed); 0.6% of 320,000 active; in the data active = inhibition mostly above about 10%, no sharp cut-off; inactive = mostly below about 6.7%;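 note: stock transfer was 7.5 nL into about 10 µL; 0% = median of vehicle wells and 100% = median of positive control wells; one replicate is shown; the record names a cut of 25% in any replicate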
Numbers without * were called inactive; & = joins results of further samples.

Screening COc1ccc(OC2CCN(C(=O)Nc3ccc(C)cc3)CC2)cc1 returned E coli growth 0.65, UCH37 DUB inh 4.3, B2AR ag 14, HNF4A DNA FP 0.7, Bfl-1 A1 inh -0.3 and LANA-H2A inh -6.6.
`Cc1c(Cl)cccc1N1C(=O)CC(N(O)c2ccccc2)C1=O` (stereo not drawn) gave E coli growth 0.75, UCH37 DUB inh 4.9, B2AR ag -3, HNF4A DNA FP -2.0, Bfl-1 A1 inh -0.4, Vif TR-FRET -3% and LANA-H2A inh -3.2.
O=C(N/N=C/c1ccc(Br)cc1)c1cc[n+]([O-])cc1 was read as B2AR ag -22, HNF4A DNA FP 2.6, Bfl-1 A1 inh 0.5 and LANA-H2A inh 6.6.
CCc1ccc(NC(=S)NC(=O)CC(C)C)cc1 was read as E coli growth 0.69, UCH37 DUB inh 0.7, B2AR ag -1, HNF4A DNA FP 0.2, Bfl-1 A1 inh -0.1, Vif TR-FRET 31% and LANA-H2A inh -2.3.
COc1ccc(N2CCN(Cc3nc4ccccc4c(=O)[nH]3)CC2)cc1 was read as E coli growth 0.69, UCH37 DUB inh -1.0, B2AR ag 1, HNF4A DNA FP -5.9, Bfl-1 A1 inh 0.2, Vif TR-FRET 4% and LANA-H2A inh -0.6.
Cc1ccccc1-n1nc(C)c2cc(C(=O)N3CCOCC3)sc21 was read as E coli growth 0.73, UCH37 DUB inh 0.8, B2AR ag 1, HNF4A DNA FP -2.0, Bfl-1 A1 inh 0.0, Vif TR-FRET 7% and LANA-H2A inh -2.1.
`CC(=O)Nc1nc(C)cs1` gave E coli growth 0.68, UCH37 DUB inh 2.8, B2AR ag -10, HNF4A DNA FP 3.8, Bfl-1 A1 inh 0.6, Vif TR-FRET -3% and LANA-H2A inh -1.9.
Screening COC(=O)C1=C(C)N(CCCC(=O)O)C(=O)NC1c1ccccc1Cl (stereo not drawn) returned E coli growth 0.71, UCH37 DUB inh 4.5, B2AR ag -9, HNF4A DNA FP -0.3, Bfl-1 A1 inh 0.2 and LANA-H2A inh -3.4.
O=C(NCCNC1CCN(Cc2ccccc2)CC1)c1cccs1 was read as Bfl-1 A1 inh 0.2, Vif TR-FRET 6% and LANA-H2A inh 3.8.
`NC(=O)c1nc[nH]c1C(=O)Nc1cccc(NC(=O)c2cccc(C(F)(F)F)c2)c1` gave E coli growth 0.7, UCH37 DUB inh -189, B2AR ag 4, HNF4A DNA FP 2.4, Bfl-1 A1 inh 2.0 and LANA-H2A inh 3.7.
`COC(=O)c1cc(S(=O)(=O)NCCc2ccc(SC)cc2)c[nH]1` gave E coli growth 0.65, UCH37 DUB inh 2.4, B2AR ag 5, HNF4A DNA FP 1.4, Bfl-1 A1 inh -1.9 and LANA-H2A inh -1.7.
For CC(C)(C)OC(=O)Nc1ccc([C@@H](NC(=O)OC(C)(C)C)C(=O)OC(C)(C)C)cc1 the results were E coli growth 0.8, UCH37 DUB inh 0.9, B2AR ag 4, HNF4A DNA FP 0.6, Bfl-1 A1 inh 0.9 and LANA-H2A inh 1.1.
`COc1ccccc1NC(=S)NC(C)=O` gave E coli growth 0.73, UCH37 DUB inh 1.8, B2AR ag -7, HNF4A DNA FP 4.5, Bfl-1 A1 inh -0.5, Vif TR-FRET 2% and LANA-H2A inh -1.2.
O=C(CSC1=NS(=O)(=O)c2ccccc2N1)Nc1ccc(F)cc1 was read as E coli growth 0.58, UCH37 DUB inh 3.7, B2AR ag 5, HNF4A DNA FP -2.9, Bfl-1 A1 inh 0.4 and LANA-H2A inh 1.1.
Screening Cc1ccc(/C=C2\SC(=S)N(CCCC(=O)N3CCOCC3)C2=O)cc1 returned E coli growth 0.72, UCH37 DUB inh 9.6, B2AR ag -2, HNF4A DNA FP 2.4, Bfl-1 A1 inh 0.1 and LANA-H2A inh -1.2.
Screening CC(C)=C1SC(N2CCN(c3ccc(C)c(Cl)c3)CC2)=NC1=O returned E coli growth 0.7, UCH37 DUB inh 3.8, B2AR ag 2, HNF4A DNA FP -1.1, Bfl-1 A1 inh -0.3, Vif TR-FRET 2% and LANA-H2A inh -4.4.
For CN1CCN(C(=O)N2CCNC2=O)CC1 the results were E coli growth 0.66, UCH37 DUB inh -1.3, B2AR ag 1, HNF4A DNA FP -2.4, Bfl-1 A1 inh 0.5, Vif TR-FRET 3% and LANA-H2A inh 0.4.
CCCCn1c(N)c(Sc2ccccc2[N+](=O)[O-])c(=O)[nH]c1=O was read as E coli growth 0.66, UCH37 DUB inh 8.4, B2AR ag -4, HNF4A DNA FP 3.9, Bfl-1 A1 inh -0.1, Vif TR-FRET 5% and LANA-H2A inh 11.
O=C(COC(=O)C1CC(=O)N(Cc2ccccc2)C1)Nc1ccccc1F (stereo not drawn) was read as E coli growth 0.65, UCH37 DUB inh 0.5, B2AR ag 2, HNF4A DNA FP -1.0, Bfl-1 A1 inh -0.6 and LANA-H2A inh 1.1.
Screening CCN(CC)S(=O)(=O)c1cccc(-c2cn3cc(C)ccc3n2)c1 returned E coli growth 0.71, UCH37 DUB inh -6.1, B2AR ag 4, HNF4A DNA FP -1.0, Bfl-1 A1 inh -2.5, Vif TR-FRET inconclusive and LANA-H2A inh 6.9.
For COc1nc(OC)nc(N2CCC(C(=O)NC3CC3)CC2)n1 the results were E coli growth 0.7, UCH37 DUB inh 0.1, B2AR ag 0, HNF4A DNA FP 1.3, Bfl-1 A1 inh 0.2 and LANA-H2A inh 8.2.
`Cc1cccc(NC(=O)Cn2nc([N+](=O)[O-])c(Br)c2C)n1` gave E coli growth 0.7, UCH37 DUB inh 2.2, B2AR ag 1, HNF4A DNA FP -1.4, Bfl-1 A1 inh 0.1, Vif TR-FRET -11% and LANA-H2A inh -1.0.
For COc1ccc(S(=O)(=O)CCC(=O)NCCc2cccc(C)c2)cc1 the results were E coli growth 0.67, UCH37 DUB inh 1.0, B2AR ag 4, HNF4A DNA FP 1.3, Bfl-1 A1 inh -0.2, Vif TR-FRET 13% and LANA-H2A inh -1.2.
CCOCCn1c(CCCO)nc2ccccc21 was read as E coli growth 0.7, UCH37 DUB inh -0.6, B2AR ag 8, HNF4A DNA FP -1.8, Bfl-1 A1 inh 1.2, Vif TR-FRET -5% and LANA-H2A inh -1.0.
`CC(=O)NS(=O)(=O)c1ccc(N)cc1` gave E coli growth 0.7&0.66, UCH37 DUB inh -0.1&5.5, B2AR ag -3&8, HNF4A DNA FP -0.8&-0.1, Bfl-1 A1 inh 2.2&-1.1, Vif TR-FRET inconclusive and LANA-H2A inh 0.4&-5.1.
O=C(Nc1ccc(S(=O)(=O)Nc2nccs2)cc1)C1=NN(c2ccccc2)C(=O)CC1 was read as E coli growth 0.7, UCH37 DUB inh 3.2, B2AR ag -4, HNF4A DNA FP 2.6, Bfl-1 A1 inh 0.1, Vif TR-FRET 31% and LANA-H2A inh 8.3.
For CCn1c(-c2csc3c2CCCC3)n[nH]c1=S the results were E coli growth 0.69, UCH37 DUB inh 1.2, B2AR ag -9, HNF4A DNA FP 0.9, Bfl-1 A1 inh 0.6, Vif TR-FRET -6% and LANA-H2A inh -0.6.
`NC1=NC(=O)/C(=C/c2cc(Br)c(O)c(Br)c2)S1` gave E coli growth 0.63, UCH37 DUB inh 8.7, B2AR ag 5, HNF4A DNA FP 21, Bfl-1 A1 inh 1.5 and LANA-H2A inh -2.6.
Cc1ccc(-n2c(Cc3cccn3C)nnc2SCC(=O)Nc2ccc3c(c2)OCO3)cc1 was read as E coli growth 0.65, UCH37 DUB inh 4.1, B2AR ag -2, HNF4A DNA FP 3.2, Bfl-1 A1 inh -1.1, Vif TR-FRET inconclusive and LANA-H2A inh 2.8.
CCN(CC(=O)NCc1ccc(F)cc1)CC(=O)Nc1ccc(S(=O)(=O)N2CCCC2)cc1 was read as E coli growth 0.72, UCH37 DUB inh 3.1, B2AR ag 8, HNF4A DNA FP 1.8, Bfl-1 A1 inh 0.0, Vif TR-FRET -2% and LANA-H2A inh -0.8.
`O=C(CSc1n[nH]c(-c2ccccc2)n1)c1ccc(O)c(O)c1` gave E coli growth 0.64, UCH37 DUB inh 10, B2AR ag 1, HNF4A DNA FP -4.0, Bfl-1 A1 inh 0.1, Vif TR-FRET 11% and LANA-H2A inh 3.2.
COc1ccc(S(=O)(=O)N(C)C[C@H]2Oc3ccc(NC(=O)Nc4ccc5c(c4)OCO5)cc3CC(=O)N([C@@H](C)CO)C[C@@H]2C)cc1 was read as UCH37 DUB inh 1.4, B2AR ag -7, HNF4A DNA FP 2.4, Bfl-1 A1 inh -0.6 and LANA-H2A inh 0.5.
Screening Nc1[nH][nH]c(=O)c1N=Nc1ccc2c(c1)OCO2 returned E coli growth 0.71, UCH37 DUB inh 14, B2AR ag -1, HNF4A DNA FP 3.2, Bfl-1 A1 inh -3.0 and LANA-H2A inh -2.1.
`CCCN1C(=O)c2cc(C(=O)Nc3ccccc3OC)ccc2C1Nc1ccccc1OC` (stereo not drawn) gave E coli growth 0.7, UCH37 DUB inh 2.5, B2AR ag 9, HNF4A DNA FP 5.8, Bfl-1 A1 inh 0.9 and LANA-H2A inh 1.0.
For O=C(CCN1CCC2CCC(C2)C1)c1ccc(F)cc1 (stereo not drawn) the results were E coli growth 0.66, UCH37 DUB inh -1.3, B2AR ag -1, HNF4A DNA FP 0.8 and Vif TR-FRET -2%.
CC1(C)Cc2cccc(OCC(=O)OCC(=O)NCc3ccccc3)c2O1 was read as E coli growth 0.68, UCH37 DUB inh 1.4, B2AR ag 11, HNF4A DNA FP 1.6, Bfl-1 A1 inh 0.0 and LANA-H2A inh 1.6.
Screening O=C(Cc1ccccc1)NN1C(=O)/C(=C/c2ccccc2C(=O)O)SC1=S returned E coli growth 0.64, UCH37 DUB inh 15, B2AR ag -3, HNF4A DNA FP 1.3, Bfl-1 A1 inh 1.0, Vif TR-FRET 7% and LANA-H2A inh -1.3.
`O=[N+]([O-])c1ccccc1S(=O)(=O)Nc1ncccn1` gave E coli growth 0.63, UCH37 DUB inh 4.2, B2AR ag -5, HNF4A DNA FP -2.9, Bfl-1 A1 inh 0.5, Vif TR-FRET 6% and LANA-H2A inh 0.1.
Screening NC(=O)C1CCN(S(=O)(=O)c2cccc(S(=O)(=O)N3CCCCC3)c2)CC1 returned E coli growth 0.74, UCH37 DUB inh 4.7, B2AR ag -2, HNF4A DNA FP -0.8, Bfl-1 A1 inh 0.1, Vif TR-FRET -2% and LANA-H2A inh 2.5.
For O=C(CSc1ncn[nH]1)c1ccco1 the results were E coli growth 0.66, UCH37 DUB inh 5.0, B2AR ag 17, HNF4A DNA FP 1.2, Bfl-1 A1 inh 0.5, Vif TR-FRET 26% and LANA-H2A inh -1.1.
CCCn1nnnc1NCc1cccc(OC)c1OC was read as E coli growth 0.64, UCH37 DUB inh 3.0, B2AR ag 12, HNF4A DNA FP -1.4, Bfl-1 A1 inh 0.5 and LANA-H2A inh 5.9.
O=C(c1cc2ccccc2[nH]1)N(Cc1cccnc1)CC1CCCN(C2CCCCC2)C1 (stereo not drawn) was read as E coli growth 0.69, UCH37 DUB inh -1.1, B2AR ag 5, HNF4A DNA FP 1.9, Bfl-1 A1 inh 0.6, Vif TR-FRET -6% and LANA-H2A inh -0.7.

Not a hit list, and some 2.1% of all compounds hit somewhere here.
